# Screening results (PubChem BioAssay)
# Calb biofilm kill: clotrimazole potentiators killing C. albicans biofilm, primary screen, 4-compound mixtures | C. albicans biofilm persisters + clotrimazole, fluorescence viability; primary screen in compound mixtures of four per well | inhibition, % at 7.6 µM | actives 0.02% (n = 120,000) | AID 1242, 2008;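 active = inhibition above 30.3% in the primary screen of four-compound pools, then above 30% when the compound was retested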;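 also: compounds exposed to preformed 24 h biofilms for 48 h; the number belongs to the whole pool; some results filed as inactive read as strong as hits; inactives centre near 12; 0% = biofilm with clotrimazole alone and 100% = kill control; retested singly at about 60 µM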
#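 System: C. albicans CAF4-2 wild-type biofilms; Medium: RPMI/MOPS medium, pH 7.0; Reagent: Clotrimazole, 50 µg/mL; Times: biofilm formation 24 h, compound exposure 48 h, 37 °C; Detection: 2-h Alamar Blue fluorescence, 535/590 nm excitation/emission; Evaluation: percent inhibition of biofilm viability.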
# The depositor's hits bear a star. A portion of the library, so the mix of outcomes need not match the whole.
structure | Calb biofilm kill
Cc1cc(C)c[n+](-c2[nH]c(=O)sc2/C=N/N=C(\N)[S-])c1 | 10
COc1ccc(N2CCN(C(CNC(=O)C(=O)NCc3ccc4c(c3)OCO4)c3ccco3)CC2)cc1 (configuration not stated) | 17
CCCc1ccc(C(=O)NNc2cccc(C)c2)cc1 | 1
CCc1nnc(NS(=O)(=O)c2ccc(N/C=C(\C=O)c3nc4cc(Cl)ccc4o3)cc2)s1 | 18
O=C(CCC(=O)N/N=C/c1ccccc1O)NCc1ccccc1 | 14
COc1cccc(/C=N/Nc2nc3ccccc3n3cnnc23)c1 | 13
COc1ccc(-n2cc(CN[C@H]3CCCCNC3=O)c(-c3cccc(F)c3)n2)cc1 | 23
O=C(CCCOc1ccccc1)Nc1ccc(S(=O)(=O)Nc2ccccn2)cc1 | -7
CCn1cc(/C=N\NC(=O)c2cc(-c3ccccc3OC)nc3ccccc23)c(C)n1 | 9
O=C1C(NS(=O)(=O)c2cccs2)=C(N2CCN(Cc3ccccc3)CC2)C(=O)c2ccccc21 | 23
S=c1[nH]nc(-c2cc(-c3ccccc3)n[nH]2)n1/N=C/C=C/c1ccco1 | 22
COc1ccccc1NS(=O)(=O)c1ccc(C)c(NC(=O)c2ccc(S(=O)(=O)N3CCCCCC3)cc2)c1 | 9
CCOC(=O)C(=Nc1ccccc1)NO | 12
COc1ccc(CCn2c(-c3cccc([N+](=O)[O-])c3)nc3nc4ccccc4nc32)cc1OC | 14
C[C@H](O)CC1=C[C@H](O)[C@@H](C)OC1=O | 0
CCOC(=O)N1CCN(S(=O)(=O)c2ccc(F)c(C(=O)Nc3ccc(C)c(Cl)c3)c2)CC1 | 4
CCOC(=O)c1ccc(NC(=S)N2CCSC2c2ccc(Br)cc2)cc1 (configuration not stated) | 5
COc1ccc(Nc2nc(N3CCN(C)CC3)nc3ccccc23)c(OC)c1 | 22
Cc1ccc(/C=C/C2=NN(C)C(=O)CC2)cc1 | 14
COc1ccc(NC(=S)NC(NC(=O)CCl)C(Cl)(Cl)Cl)c([N+](=O)[O-])c1 (configuration not stated) | 1
CN(Cc1ccccc1)C(=O)NC1CCCCC1 | 15
CC(C)(C)OC(=O)NCCCCCc1nnc(SCc2ccccc2)o1 | 25
COc1cccc(-c2cc(-c3cccnc3)nc(N)c2C#N)c1 | 19
Cc1c(C)c(C)c(CO/N=C/c2cccs2)c(C)c1C | 5
CC(C)(C)c1ccc(CCC(CC(=O)O)CC(=O)O)cc1 | 17
O=[N+]([O-])c1ccc(-c2nc(NCc3ccccc3)c3ccccc3n2)cc1 | 16
COc1nn(CC(=O)N2N=C(C(F)F)CC2(O)C(F)F)cc1[N+](=O)[O-] (configuration not stated) | 9
Cc1ccc(C2OC3=C(C(=O)CC(C)(C)C3)C(N)=C2C#N)o1 (configuration not stated) | 8
COc1ccc(-c2cc(C(F)(F)F)nc(SCC(=O)NCCN3CCOCC3)n2)cc1OC | 16
C=CCn1c(SCC(=O)NCCc2ccccc2)nnc1C(C)NC(=O)c1cccs1 (configuration not stated) | -4

# Reformatted as labelled records: four of the compounds above.
canonical_smiles: COc1ccc(N2CCN(C(CNC(=O)C(=O)NCc3ccc4c(c3)OCO4)c3ccco3)CC2)cc1 (configuration not stated)
  Calb biofilm kill: 17
canonical_smiles: Cc1ccc(/C=C/C2=NN(C)C(=O)CC2)cc1
  Calb biofilm kill: 14
canonical_smiles: CN(Cc1ccccc1)C(=O)NC1CCCCC1
  Calb biofilm kill: 15
canonical_smiles: COc1ccc(NC(=S)NC(NC(=O)CCl)C(Cl)(Cl)Cl)c([N+](=O)[O-])c1 (configuration not stated)
  Calb biofilm kill: 1

# (cont.)
structure | Calb biofilm kill
CN1CCN2c3ccccc3Cc3ccccc3C2C1 (configuration not stated) | -3
COCCn1c(=NC(=O)/C=C/c2ccccc2)sc2cc(NC(C)=O)ccc21 | 17
NNC(=O)CN1C(CN2CCOCC2)=Nc2ccc(Br)cc2C1c1ccccc1 (configuration not stated) | 18
COC(=O)Nc1ccc(S(=O)(=O)Nc2ncccn2)cc1 | 9
CC(C)OC(=O)CC12CN3CN(C1)CC(CC(=O)OC(C)C)(C3)C2=O | 4
O=C(c1ccc(F)cc1)N1CCCCC(S(=O)(=O)c2ccccc2)C1=O (configuration not stated) | -1
COC(=O)/C=C1\S/C(=N/NC(=O)c2ccc(OC)cc2)NC1=O | 16
CCCCC/C(=N\NC(=O)CCC(=O)NCc1ccccc1)c1ccccc1 | 14
CCOc1ccc(N2C(=O)CC(Sc3ccccc3C(=O)O)C2=O)c([N+](=O)[O-])c1 (configuration not stated) | 10
O=C(O)CCCNC(=O)/C(=C\c1ccc(Cl)cc1)NC(=O)c1ccc(Br)cc1 | 9
Cc1ccc(CNC(=O)C(=O)NCC(c2ccco2)N2CCOCC2)cc1 (configuration not stated) | 1
CS(=O)(=O)N1N=C(c2ccco2)CC1c1ccc(Cl)cc1Cl (configuration not stated) | 15
COC(=O)C1=C(C)N(Cc2ccco2)C(=O)N[C@H]1c1ccccc1 | 9
O=C(C1=C(O)/C(=C/c2ccc(O)cc2)CCC1)C(F)(F)F | -6
O=C(NNC(=O)c1sccc1-n1cccc1)c1ccc(F)cc1 | 16
COc1cc2c(cc1NC(=S)NC(=O)c1c(OC)cccc1OC)oc1ccccc12 | 11
C[n+]1ccccc1N1CCN(c2ccccc2Cl)CC1 | 9
CCOC(=O)CSc1nc2sc(C)c(C)c2c(=O)n1N | 16
CN(C)S(=O)(=O)c1cccc(COC(=O)c2ccc(Cl)cc2O)c1 | 13
CC(C)(C)OC(=O)N1CC(O)CC1C(=O)OCC(=O)c1ccccc1 (configuration not stated) | 13
CC(=O)Nc1nccc(-c2cc(-c3ccccc3)no2)n1 | 14
C=CCc1cc(Cl)ccc1OCCNCCOC | 8
CCN1C(=O)/C(=C\c2ccc(F)cc2)N=C1SCC(=O)NCc1ccco1 | 2
CCN(C(=O)c1ccc2c(Cl)c3c(nc2c1)CCC3)c1cccc(C)c1 | 9
COc1ccc(NC(=O)Cn2c(NCC(C)O)nc3ccccc32)cc1Cl (configuration not stated) | 10
Cc1ccc(C(=O)Nc2ccc3c(c2)OCO3)cc1NC(=O)c1ccco1 | 16
Cc1ccc2nc(SCn3nnc4ccccc4c3=O)[nH]c2c1 | 8
O=C(Cn1nnc(-c2cccs2)n1)NCc1ccco1 | -5
CCCCNC(C(=O)Nc1cccc(S(=O)(=O)N2CCOCC2)c1)c1ccccc1 (configuration not stated) | 16
CC(=O)Nc1ccccc1OCC(=O)NCCc1ccc(Cl)cc1Cl | 16
O=C(CCc1nnc(-c2ccccc2)o1)c1ccc(Cl)cc1 | 17
O=C1/C(=C\c2ccsc2)N2CCC1CC2 | 22
O=C(NNC(=O)c1ccc[nH]1)Nc1cccc(C(F)(F)F)c1 | 2
COc1ccc(CNC(=S)Nc2ccc3nc(N4CCN(C)CC4)cc(C)c3c2)cc1 | 16
O=C(NCc1nc2ccccc2[nH]1)C1=C[C@@H](c2ccccc2)C[C@@H](OCCCCO)O1 | 15
Cc1nc(S/C(=C/c2ccc(-c3ccc(C(=O)O)cc3)o2)C(=O)O)n[nH]1 | 23
COC(=O)CCSCC(=O)Nc1ccc(S(=O)(=O)N2CCOCC2)cc1OC | 22
CC(C)OC(=O)C1CC(C)(O)C(=O)C(C(=O)OC(C)C)C1c1ccc([N+](=O)[O-])cc1 (configuration not stated) | 29
O=C(NCc1ccco1)/C(=C\c1cccs1)NC(=O)c1ccsc1 | 5
COc1cc2nc(C3CCC3)n(NC(=O)C3CCCC(OC)C3)c(=O)c2cc1OC (configuration not stated) | 6
CSc1cccc(NC(=O)COc2ccccc2C)c1 | 10
COc1cc(C2NC(=S)NC(c3ccccc3)=C2C(C)=O)cc(Br)c1OCC(N)=O (configuration not stated) | 8
COc1ccc(/C=C/C(=O)N2CCC(c3ccccc3)C2)cc1 (configuration not stated) | 13
CC(C)C1CC(CCN)(Cc2ccccc2)CCO1 (configuration not stated) | 1
O=c1oc2ccccc2n1Cc1ccccc1Cl | 16
O=C(CSc1nnnn1C1CCCCC1)N1CCOCC1 | 15
CC1(C)CN=C(N(C(=O)Nc2ccccc2)c2ccccc2F)S1 | 24
CCN(CC)CCNC(C(=O)Nc1ccc([N+](=O)[O-])cc1Br)c1ccccc1 (configuration not stated) | 9
CS(=O)(=O)c1ccc(-c2cn3cc(C(=O)O)ccc3n2)cc1 | 9
CC1CCN(C(=S)c2ccc([N+](=O)[O-])cc2)CC1 | 24
COc1ccc(OCC(O)CN2CCN(Cc3ccc4c(c3)OCO4)CC2)cc1 (configuration not stated) | 9
COc1ccc(/C(N)=N/OC(=O)CCCc2ccccc2)cc1 | 6
CN(C(=O)COc1ccccc1C(=O)NCCc1ccccc1)c1ccccc1 | 13
CCN(CC)CCOC(=O)C1(C2CCCCC2)CCCCC1 | 13
Cc1c(CC(=O)O)c(=O)oc2cc3oc4c(c3cc12)CCCC4 | 19
CC(C)(C)OC(=O)NNC(=S)NC1CCCCC1 | 8
C=CCn1c(SCc2cccc(F)c2)nc2cc(C(=O)N3CCC(C(N)=O)CC3)ccc2c1=O | 8
O=C(NNc1ncnc2sccc12)c1ccc(Cl)cc1 | 17
CN(C)Cc1cc(C(C)(C)C)cc(C(C)(C)C)c1O | 24
Cc1occc1-c1n[nH]c(=S)n1CC(C)C | 10

# The list goes on.
structure | Calb biofilm kill
NC(=O)C1=C[C@H](c2ccc(C(F)(F)F)cc2)C[C@H](OCc2ccc(CO)cc2)O1 | 18
COc1ccccc1C(=O)NNC(=O)c1ccc(NC(=O)C(C)C)cc1 | 20
O=C(Nc1nc(-c2cccnc2)cs1)c1cccc([N+](=O)[O-])c1 | 11
CCOc1cc(/C=N/NC(=O)C(=O)NCc2cccnc2)ccc1O | 18
O=C1C2C(c3ccccc3)=NN(c3ccccc3)C2C(=O)N1c1ccccc1 (configuration not stated) | 5
O=c1c(Cl)c(NS(=O)(=O)c2ccccc2)cnn1-c1ccccc1 | 18
O=C(Nc1ccc(Cl)c(Cl)c1)C1CC(=O)N(c2ccc(Br)cc2)C1 (configuration not stated) | 17
CCOc1ccc(NC(=O)C2C3CCC4C(CCC32)C4(Cl)Cl)cc1 (configuration not stated) | 8
CCn1c(C)nc2cc(C(N)=O)ccc21 | 21
COCCNC(=O)c1ccc(-n2c(SCc3cccnc3)nc3ccccc3c2=O)cc1 | 16
Cc1cc(C=NCCO)c(C)n1-c1cc(Cl)ccc1Cl | 14
O=C(Cn1c(SCC(=O)N2CCc3ccccc32)nc2ccccc21)NC1CCCC1 | 14
CCOc1ccc(C)cc1S(=O)(=O)n1nc(C)cc1C | 17
O=C(NC1CCCCCC1)c1ccccc1-c1ccccc1 | 19
CN1CCc2c(sc3c2C(=O)NC(c2ccc(-c4ccc(Cl)cc4)o2)N3)C1 (configuration not stated) | 7
Cc1c(-n2c(SCC(=O)C(C)(C)C)nc3ccccc3c2=O)c(=O)n(-c2ccccc2)n1C | 8
Cc1cc(C)c2nc(NC(=O)[C@@H](NC(=O)c3cccc(S(=O)(=O)N4CCOCC4)c3)C(C)C)sc2c1 | 13
CCN1CCN(CC(=O)N2CCCC(C(=O)c3ccc(Oc4ccccc4)cc3)C2)CC1 (configuration not stated) | 12
CCCC1=NN2C(=N)/C(=C\c3cc(C)n(-c4cccc(C)c4)c3C)C(=O)N=C2S1 | 19
N#Cc1c(-c2ccccc2Cl)cc(-c2ccccc2)nc1Br | 15
COc1cccc(CCc2nnc(CCC(=O)NCCc3cccc(C)n3)o2)c1 | 17
CN(C)C(/C=C/Nc1cccc([N+](=O)[O-])c1)=C(C#N)C#N | 16
O=C(NCCC1=CCCCC1)C1CCN(C(=O)c2ccc(Br)cc2)CC1 | 17
C[C@@H](C(=O)Nc1ccc2ccccc2c1)[C@@H]1C[C@@]1(C)[C@@H](NC(=O)c1cnccn1)c1ccccc1 | 8
CC(/C=N/Nc1nc(C)cc(C)n1)=C\c1ccc(C(C)C)cc1 | 10
O=S(=O)(NCC1CCCO1)c1ccc(S(=O)(=O)N(Cc2ccccn2)C2CC2)cc1 (configuration not stated) | 15
CCc1nnc(NS(=O)(=O)c2ccc(N=Cc3c(C)[nH]n(-c4ccc(Cl)cc4)c3=O)cc2)s1 | 18
O=C(COC(=O)c1cc(Cl)ccc1[N+](=O)[O-])NCc1ccc(Cl)cc1Cl | 8
O=C(Cc1ccccc1)Nc1c[nH]c(=O)[nH]c1=O | 9
CN(C)c1ccc(/C=C2\N=C(c3ccc(Cl)c([N+](=O)[O-])c3)NC2=O)cc1 | 2

# By substructure: the entries above containing a cyano group.
structure | Calb biofilm kill
COc1cccc(-c2cc(-c3cccnc3)nc(N)c2C#N)c1 | 19
Cc1ccc(C2OC3=C(C(=O)CC(C)(C)C3)C(N)=C2C#N)o1 (configuration not stated) | 8
N#Cc1c(-c2ccccc2Cl)cc(-c2ccccc2)nc1Br | 15
CN(C)C(/C=C/Nc1cccc([N+](=O)[O-])c1)=C(C#N)C#N | 16

# (next part)
structure | Calb biofilm kill
COc1ccc(N2CCN(C(=O)C3CC(=O)N(c4ccc(C)cc4)C3)CC2)cc1 (configuration not stated) | 15
Cc1cccc(CSc2nnc([C@@H]3CCCN3)o2)c1 | 10
Cc1ccccc1CC1(CO)CCCN(C(=O)c2ccccc2N(C)C)C1 (configuration not stated) | 23
O=C(CNC1CCCCCC1)c1cccs1 | 16
CCN(C(=O)c1cccs1)c1nc(-c2ccc(OC)cc2)cs1 | 16
COc1cc(C(=O)NC(=S)Nc2ccc3c(c2)OCO3)cc(OC)c1OC | 13
O=C1N=C(N2CCOCC2)S/C1=C\c1cccs1 | 5
Clc1cccc(OCCN2CCNCC2)c1 | 8
